# VDR inh – blocks the human vitamin D receptor | VDR-SRC2-3 peptide fluorescence polarization, 2 h | actives 0.93% (n = 400,000) | Potency, µM, for inactives: max response, negative = inhibition, actives largely listed as inhibitors | P11473; active means well fitted inhibition curve with a large enough effect; inconclusive means small, poorly fitted or top-dose-only effect, or another doubt; inactive means no such curve, though single readings can be large or run the other way; further: series mostly up to about 120 µM
# Target sequence (P11473 whole entry, looked up): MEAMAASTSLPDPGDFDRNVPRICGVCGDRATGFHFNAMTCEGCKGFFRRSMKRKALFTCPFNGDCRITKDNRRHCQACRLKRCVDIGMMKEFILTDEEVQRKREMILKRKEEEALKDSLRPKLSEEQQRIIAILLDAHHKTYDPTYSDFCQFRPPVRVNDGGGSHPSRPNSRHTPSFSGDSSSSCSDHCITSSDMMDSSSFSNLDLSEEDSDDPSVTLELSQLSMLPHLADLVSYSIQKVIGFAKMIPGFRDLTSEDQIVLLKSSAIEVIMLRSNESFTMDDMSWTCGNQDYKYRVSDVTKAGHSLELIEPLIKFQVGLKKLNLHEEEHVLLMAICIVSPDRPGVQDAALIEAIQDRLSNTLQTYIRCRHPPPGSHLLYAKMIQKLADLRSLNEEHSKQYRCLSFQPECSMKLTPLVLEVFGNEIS
#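 Inhibition of the VDR/SRC2-3 peptide interaction is quantified by fluorescence polarization. Compounds (23 nl, pintool) incubate with the reagents for 2 hours at ambient room temperature.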
# Numbers without * were called inactive; u = inconclusive; & = joins results of further samples. On the % scale 0 is the no-effect control and ±100 the full control effect; potency means the concentration at half of the fitted maximal effect. Some of the compounds tested; count on the stated rates, not on these rows.
SMILES,VDR inh
CCN(CC)S(=O)(=O)c1ccc2c(c1)nc(CN(C)C(=O)c1cccc(Cl)c1)n2C,7%
COc1cccc(NC(=S)NNC(=O)Cn2nc([N+](=O)[O-])cc2C)c1,19%
O=C(C1=C(O)C(=O)N(c2ncccn2)C1c1ccc(Cl)cc1)c1ccco1 (stereo not given),-8%
O=C(NCCOc1ccccc1)c1ccccc1NC(=O)C1CCCO1 (stereo not given),-10%
CCCNc1ncnc2sc(C)c(C)c12,-1%
CC1(C)[C@@H]2CC[C@@]1(C)C(=O)C2,-1%&1%
O=C(COCc1cc(-c2cccs2)on1)NCc1ccccc1Cl,1%
CCC/C(O)=C1\C(=O)CCCC1=NCCc1c(C)[nH]c2ccc(OC)cc12,26%
CCOC(=O)c1c(NC(=S)Nc2ccccc2)sc2c1CCN(C)C2,3%
O=C1C=C(Nc2ccc(Cl)cc2Cl)CC(c2ccco2)C1 (stereo not given),-15%
COc1cccc(N2CCN(c3c4c(nc5nncn35)CCC4)CC2)c1,-7%
O=C(COc1ccc2ccccc2c1CN1CCOCC1)N1CCc2ccccc21,5%
CCc1cccc(C)c1NC(=O)c1cccc(C(=O)Nc2c(C)cccc2CC)c1,2%
CCOC(=O)c1c(C)[nH]c(C(=O)OCC(=O)N2CC(C)OC(C)C2)c1C (stereo not given),-9%
COc1ccc(N(CC(=O)NCC2CCCO2)C(=O)CCC(=O)Nc2cc(C)on2)cc1OC (stereo not given),11%
Cc1cc(OCC(=O)N(C)Cc2ccccc2)cc(C)c1Cl,-7%
CCOC(=O)CSc1nnc(NC(=O)c2cccc(S(=O)(=O)N3CCCC3)c2)s1,13%
Cc1ccc(C)c(NC(=S)NCCc2c[nH]c3ccccc23)c1,7%
Cc1ccc(-c2nc3ccccc3o2)cc1NC(=S)NC(=O)/C=C/c1ccco1,-9%
O=C(O)c1sccc1SCc1ccc(Cl)c(Cl)c1,-11%
COc1ccc(OC)c(CCNC(=O)c2ccc3[nH]c(C)c(C)c3c2)c1,9%
CCOc1ccc(CN2C(=O)CC(=O)N(S(=O)(=O)c3ccc(OCC)cc3)C2=O)cc1,-9%
COc1cc(NC(=O)CN2CCN(c3ccccn3)CC2)cc(OC)c1OC,-9%
CCOc1ccc(CCNC(=O)Nc2ccccc2C)cc1OCC,-14%
Cc1ccc2nc(N3CCN(S(=O)(=O)c4ccc(C)c(Cl)c4)CC3)c(C#N)cc2c1,-1%
Cc1cc(C)nc(N2CCN(C(=O)CCC(=O)Nc3nnc(CC(C)C)s3)CC2)n1,-2%
COc1ccc(Cl)c(Cn2c(NCCCN(C)C)nc3c2c(=O)n(C)c(=O)n3C)c1,-9%
Cc1ccc(C(=O)Nc2onc3c2CCCC3)cc1,-6%
Cc1ccc(OCC(=O)N(C)Cc2ccccc2)c([N+](=O)[O-])n1,-2%
O=C(NNc1ccccn1)c1ccc(Cl)nc1,4%
O=C(Cn1c(=O)n(Cc2ccc(F)cc2)c(=O)c2sc3ccccc3c21)NCc1ccccc1,8%
O=C(CCSc1ccccc1)Nc1ccccc1Br,-13%
O=C(CNC(=O)c1ccccc1)OCc1cccc(Br)c1,-1%
S=c1[nH]ncn1-c1ccccn1,18%
COc1cc([N+](=O)[O-])cc(/C=N/N(CCC#N)C(C)=O)c1O,-8%
NC1=NC(=O)C(Cc2ccccc2)S1 (stereo not given),-10%
Cn1c(=O)[nH]c(=O)c2c1nc(CN1CCOCC1)n2CCCO,10%
Cc1ccc(C(=O)NNC(=O)CCC(=O)NCc2ccccc2)cc1Br,-9%
COC(=O)c1cc(NC(=O)c2ccccc2)c(=O)oc1C,1%
Nc1c(Cl)ncnc1Nc1ccc(C(=O)O)cc1,-22%

# 4 consecutive compounds from above, for reference:
SMILES,VDR inh
Cc1cc(OCC(=O)N(C)Cc2ccccc2)cc(C)c1Cl,-7%
CCOC(=O)CSc1nnc(NC(=O)c2cccc(S(=O)(=O)N3CCCC3)c2)s1,13%
Cc1ccc(C)c(NC(=S)NCCc2c[nH]c3ccccc23)c1,7%
Cc1ccc(-c2nc3ccccc3o2)cc1NC(=S)NC(=O)/C=C/c1ccco1,-9%

# The list continues.
SMILES,VDR inh
O=C(CN(c1ccc(Cl)cc1)S(=O)(=O)c1ccc(Cl)c([N+](=O)[O-])c1)NCCc1ccc(F)cc1,5%
O=C(Cn1cnc2c(NCc3ccccc3)ncnc21)NCc1ccccn1,-6%
COc1ccc(C2CCCN2C(=S)Nc2cccc(C)c2C)cc1OC (stereo not given),-16%
Cn1c(SCc2nc3ccccc3s2)nnc1-c1ccc2c(c1)OCO2,-11%
CC(=O)Nc1ccc(NC(=O)C2C3CCC(C3)C2C(=O)O)cc1 (stereo not given),9%
O=C(/C=C/c1cccs1)NCc1cccs1,-27%
CCOC(=O)c1cc(NC(=O)N(C)C2CCCCC2)c(C)nc1C,-8%
CCOC(=O)Cn1c(N)c(C(=O)OC)sc1=S,1%
C=C1[C@H](C)CN[C@H]1CCO,-12%
O=C(c1ccc(F)cc1F)N1CCCC(c2nc(-c3cccs3)no2)C1 (stereo not given),25%
Cn1c(=NC(=O)C2CCCCC2)sc2cc([N+](=O)[O-])ccc21,27%
COCCCNc1ncnc2nc[nH]c12,-14%
COc1ccc(OC)c(CCNC(=O)Cn2ccc3cc(S(=O)(=O)N4CCCC4)ccc32)c1,-11%
Cc1ccc(C)c(-c2nnc(NC(=O)c3ccc([N+](=O)[O-])o3)o2)c1,-13%
O=C(c1ccc(F)cc1)N1CCCCC(Sc2nnnn2-c2ccccc2)C1=O (stereo not given),2%
CC(C)(C)C(=O)Nc1cccc(C(=O)OCc2cc(=O)n3nc(C4CC4)sc3n2)c1,-1%
NC(N)=NS(=O)(=O)c1ccc(NC(=S)NC(=O)/C=C/c2cccs2)cc1,-2%
CCOC(=O)c1ccc(NC(=O)c2nc(S(=O)(=O)Cc3ccccc3)ncc2Cl)cc1,32µM*
O=C(COC(=O)/C=C/c1ccc([N+](=O)[O-])cc1)NCc1ccccc1,-17%
CC1=NN(C(N)=S)C(=O)C1N=Nc1ccccc1C (stereo not given),6%

# Arranged by heavy-atom count (low to high): some entries from above.
SMILES,VDR inh
NC1=NC(=O)C(Cc2ccccc2)S1 (stereo not given),-10%
O=C(Cn1cnc2c(NCc3ccccc3)ncnc21)NCc1ccccn1,-6%
CCN(CC)S(=O)(=O)c1ccc2c(c1)nc(CN(C)C(=O)c1cccc(Cl)c1)n2C,7%
O=C(CN(c1ccc(Cl)cc1)S(=O)(=O)c1ccc(Cl)c([N+](=O)[O-])c1)NCCc1ccc(F)cc1,5%

# Quoted at random: 4 records from the list.
SMILES,VDR inh
CCc1cccc(C)c1NC(=O)c1cccc(C(=O)Nc2c(C)cccc2CC)c1,2%
CCN(CC)S(=O)(=O)c1ccc2c(c1)nc(CN(C)C(=O)c1cccc(Cl)c1)n2C,7%
Cc1ccc(-c2nc3ccccc3o2)cc1NC(=S)NC(=O)/C=C/c1ccco1,-9%
O=C(C1=C(O)C(=O)N(c2ncccn2)C1c1ccc(Cl)cc1)c1ccco1 (stereo not given),-8%

# Gathered by group: those above containing a COOH group.
SMILES,VDR inh
O=C(O)c1sccc1SCc1ccc(Cl)c(Cl)c1,-11%
Nc1c(Cl)ncnc1Nc1ccc(C(=O)O)cc1,-22%
CC(=O)Nc1ccc(NC(=O)C2C3CCC(C3)C2C(=O)O)cc1 (stereo not given),9%

# The listing continues.
SMILES,VDR inh
C=CCOc1ccc(CNc2ccc(NC(=O)CC(C)C)cc2)cc1OC,11%
O=C1CN(C(=O)COC(=O)c2ccc(Cl)cc2)c2ccccc2N1,0%
CN(C)C1=NC[C@H](Cc2ccccc2)N1CCc1cccc(F)c1,-1%
CCOC(=O)CCC(NC(=O)CCCC(=O)NC(CCC(=O)OCC)C(=O)OCC)C(=O)OCC (stereo not given),2%
Cc1ccc2nc(-c3ccc(NC(=O)COc4ccc(Br)cc4Br)cc3)sc2c1,-16%
O=C(COC(=O)Cc1ccc(S(=O)(=O)N2CCOCC2)s1)Nc1ccc(F)cc1F,-15%
CCN(CC)CCn1c2c(c(SCC(=O)Nc3cc(C)ccc3C)nc1=O)CCC2,-15%
CCCCOc1ccc(CNC(=O)CN2CCSc3ccccc32)cc1,12%
O=C(O)C[C@H]1c2cc(C(F)(F)F)ccc2S(=O)(=O)N1C1CCCC1,-10%
CCOc1cc2[nH]c(=O)n(CCCN3CCN(c4ccc(OC)cc4)CC3)c(=O)c2cc1OCC,-5%
CSc1ccccc1NC(=O)c1ccco1,11%
O=C(NCCOc1ccccc1F)c1ccccc1SCc1ccc(F)cc1,u
c1ccc(CN2CCc3[nH]c4ccccc4c3C2)cc1,-2%
CN(Cc1ccco1)S(=O)(=O)c1nnc(NC(=O)c2cccc(Cl)c2)s1,u
COc1cc(/C=C2/C(=N)N3C(=NC2=O)SN=C3S(C)(=O)=O)ccc1OC(=O)c1ccco1,u
COc1ccc(CCN=C(C)c2cc(C)c(C)cc2O)cc1OC,6%
C=CCOc1ccccc1CNc1ccccc1C,12%
CCCCN1C(=O)CN(C2CCCCC2)C(=O)C1c1ccc(OC(C)C)c(OC)c1 (stereo not given),6%
COc1ccc(-c2nc3ccccc3o2)cc1NC(=O)c1ccc(-c2ccc(Br)cc2)o1,-13%
COc1ccccc1CC(=O)Nc1ccc(-c2noc(COc3ccc(Cl)c(C)c3)n2)cc1,13%
COC(=O)NNC(=S)Nc1ccc(Br)cc1,21%
Nc1n[nH]c2cccc(Cl)c12,u
CC(C)(C)NC[C@@H](O)COc1nsnc1N1CCOCC1,2%
COc1ccccc1/C=C\C(=O)NCC(=O)N/N=C/c1ccc(O)cc1O,-12%
Cc1c(C(=O)OCC(=O)N(C)Cc2ccccc2)oc2ccccc12,13%
Cc1cc(C(=O)NC2CCCCC2)c(C)n1-c1ccc(F)cc1,-5%
CC(=O)c1ccc(N2CCN(C(=O)c3cn(Cc4ccccc4)nc3-c3cccnc3)CC2)c(F)c1,18%
CC(=O)Nc1ccc(S(=O)(=O)N2CCC(C(=O)c3ccc(F)cc3)CC2)cc1,8%
Cc1cc(O)c(N=Cc2cc3c(cc2[N+](=O)[O-])OCO3)cc1C,-6%
COc1ccc(CNC(=O)CC2C(=O)NCCN2CC(C)(C)C)c(OC)c1 (stereo not given),-7%
O=S(=O)(c1ccc2c(c1)OCCO2)C1CCC(S(=O)(=O)c2c(F)cccc2F)CC1 (stereo not given),0%
Cc1ccc(S(=O)(=O)CCNC(=O)Cc2ccccc2)cc1,56µM*
CCn1c(O)c(N=NC(=O)C2C(=O)NCC2c2ccccc2)c2ccccc21 (stereo not given),-14%
CC1CCCN(C(=O)Cc2cccc3ccccc23)C1 (stereo not given),-5%
CCOC(=O)c1ccc(NC(=S)N(CCCN2CCCC(C)C2)Cc2ccco2)cc1 (stereo not given),-12%
COC(=O)c1c(Oc2ccc(OC)cc2)nnc(-c2ccccc2)c1-c1ccccc1,12%
CCOc1ccc(C(=O)Nc2ccc(S(=O)(=O)Nc3cc(C)on3)cc2)cc1,-11%
CCCOc1ccc(-c2c(C(=O)N/N=C/c3ccc(C)cc3)nnn2-c2nonc2N)cc1,1%
O=C(CCS(=O)(=O)c1ccccc1)NC1CCCC1,1%
COCc1cc(=O)[nH]c(N2CCN(c3ccccc3OC)CC2)n1,5%
COc1ccc(C)cc1NS(=O)(=O)c1cn(C)nc1C,10%
c1ccc(-c2n[nH]c3c2oc2ccccc23)cc1,4%
CC1=CC(C)(C)n2c(O)c(C3=NC(=S)NC3=O)c3cc(OC(=O)c4cccc5ccccc45)cc1c32,-7%
Cc1cccc(S(=O)(=O)NCCC(=O)OC(C)C(=O)NC(=O)NC2CCCCC2)c1 (stereo not given),1%
Cc1ccccc1NC(=S)N(CCc1c(C)[nH]c2ccc(F)cc12)Cc1cccnc1,6%
Cc1ccccc1NC(=O)CSc1ccncc1,12%
COc1cc(C2C3=C(COC3=O)Oc3cc4c(cc32)OCO4)cc(OC)c1OC (stereo not given),16%&-4%
C=CCN1CCc2cc(O)c(O)cc2C(c2ccccc2)C1 (stereo not given),-5%&-10%
Cc1ccccc1OCCCCn1c(CCNC(=O)C(C)(C)C)nc2ccccc21,-5%
CCCCn1nc(C(=O)Oc2ccc3c(C)cc(=O)oc3c2)c2ccccc2c1=O,u
COc1ccc2nc(SCC(=O)N3CCNC3=O)[nH]c2c1,-11%
O=C(O)CC1=C(c2ccc(F)cc2)CCC1=O,-2%
CC(C)CC1Nc2ncnc(N3CCN(c4ccccn4)CC3)c2N(Cc2ccc(Cl)cc2)C1=O (stereo not given),-7%
c1ccc(CCC2CCCCN2Cc2nc(C3CC3)no2)cc1 (stereo not given),1%
CCOc1ccc(OCCSc2nc3ccccc3n2CC(=O)O)cc1,2%
Cc1cccc(NC(=O)C2CCN(C(=O)c3ccccc3C)CC2)n1,-20%
Nc1cc(-c2cccc(F)c2)nn1S(=O)(=O)c1cccc2nsnc12,-12%
CC(C)C[C@@H](CNCC(=O)[C@H](CC(=O)O)NC(=O)c1[nH]cnc1C(=O)N[C@H](CN)CC(C)C)NC(=O)c1nc[nH]c1C(=O)N[C@@H](C)C(=O)O,2%
CC(C(=O)Nc1cc(C(F)(F)F)ccc1N1CCOCC1)N1C(=O)C2CC=CCC2C1=O (stereo not given),-5%
Cc1cc(NC(=O)c2ccc([N+](=O)[O-])cc2Cl)ccc1NC(=O)c1ccco1,-10%

# (next part)
SMILES,VDR inh
COCCn1cnc2c1-c1ccc(OC)c(c1)OC/C=C\COc1cccc-2c1,-14%
CC1=C(C(=O)OCC(C)C)C2(O)C(=O)c3ccccc3C2(O)N1 (stereo not given),-16%
Cc1nnc(SCCn2c(N3CCC(C)CC3)nc3c2c(=O)[nH]c(=O)n3C)s1,18%
CCCOc1ccc(C2NC(=S)NC(c3ccccc3)=C2C(=O)Nc2ccc(C)cc2)cc1OC (stereo not given),-11%
CC1COCC(C)N1C1=C(Cl)C(=O)c2ccccc2C1=O (stereo not given),u
COc1ccc(OCC(=O)Nc2ccc(S(=O)(=O)N3CCCCCC3)cc2)cc1,30%
Cc1cc(C)c(C(=O)Cn2nc(C(=O)O)c3ccccc3c2=O)cc1C,7%
CCN(CC)C(=O)c1ccc(CS(=O)(=O)c2ccc(Br)cc2)cc1,0%

# Screening data (PubChem)
